Source: PubChem BioAssay (several laboratories)
eIF4H FP inh: inhibitors of RNA binding by human eIF4H; inhibition, % at 35 µM; Q15056; AID 2012; actives 0.94% (n = 290,000); eIF4H fluorescence polarization binding assay;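 active = 50% or more with normal probe brightness, or confirmed in later tests; inconclusive = above 50% with abnormal brightness, or retests that disagree; inactive = below 50% or failed in later tests; about a fifth of its hits are not listed in these tables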;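 also: calls also rest on retests at 20 µM and on dose response follow-up; 0% = protein and probe with vehicle and 100% = probe without protein; strong numbers were not always called active; many hits fall short of the cut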
MT1-MMP act inh: MT1-MMP (human) activation inhibition | P50281 | HT1080 RFP-PRO-GFP cells, GFP/RFP ratio fluorescence, overnight; percent of plate control window, DMSO zero | GFP/RFP ratio change, % at 20 µM | actives 0.061% (n = 360,000) | AID 651647;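 active = GFP/RFP ratio change of at least 30% with cell ATP level not reduced by more than half and red fluorescence within 50% of control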; also: strong numbers were not always called active
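Assay system: HT1080 RFP-PRO-GFP cells | Dosing: 20 µM single dose, 1% DMSO | Incubation: Cells overnight before dosing, compound overnight, 37 °C, 5% CO2 | Evaluation: GFP/RFP fluorescence ratio | Control set: DMSO-only wells and HT1080 RFP-L50D-GFP cell wells as references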
UUG fidelity: alters start codon recognition fidelity in yeast | actives 0.13% (n = 350,000) | S. cerevisiae UUG-firefly luciferase reporter, luminescence/redox ratio | activity score, % at 18.7 µM;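 active = replicate mean at a twofold rise or more, about +100% in these data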;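 also: firefly luciferase made from a UUG start codon reports start codon fidelity; reporter light over untreated wells divided by growth signal over untreated wells; some hits fall short of that in this replicate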
PABP FP inh: blocks human PABP binding to poly(A) RNA | actives 1% (n = 290,000) | fluorescence polarization | P11940 | AID 2014 | inhibition, % at 35 µM;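 active = 50% or more with normal probe brightness, or confirmed in later tests; inconclusive = above 50% with abnormal brightness, or retests that disagree; inactive = below 50% or failed in later tests; about a fifth of its hits are not listed in these tables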;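 also: calls also rest on retests at 20 µM and on dose response follow-up; controls were probe without protein and protein plus probe with vehicle; some compounds called inactive have numbers as strong as hits; many hits fall short of the cut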
HIV Env fusion: blocks HIV Env-driven cell-cell fusion; HeLa-JRFL Env/CEM21 cell fusion, luciferase; inhibition, % at 12.3 µM; actives 1.1% (n = 360,000); AID 651610;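 active = mean replicate inhibition score of at least 50 and every replicate individually at or above 50; inconclusive = only one of the two criteria met; inactive = mean below 50 and not all replicates reaching 50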;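 also: 0% = plate neutral controls and 100% = maraviroc near 300 nM; one replicate is shown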
CSC inhib: blocks cancer stem cells | cancer stem cell-like cells viability, luminescence | inhibition, % at 7.5 µM | actives 1.1% (n = 300,000);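 active = mean at 75% or more and at least half the replicates too; inconclusive = mean and replicates disagree; tested in HMLE shEcad cells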;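 also: 0% = median of negative and 100% = median of positive control wells; the first replicate is given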
Rce1 inh: inhibitors of yeast Ras-converting enzyme | calls only | yeast membranes, quenched prenylated peptide cleavage fluorescence | actives 0.27% (n = 290,000) | Q03530;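 active = fall in fluorescence gain of 50% or more versus controls, with final raw signal at or below 3038400; inconclusive = same 50% fall but final raw signal above 3038400; inactive = fall in fluorescence gain under 50%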;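 also: plate controls were neutral control wells for no effect and wells lacking membranes for full effect; tested at 10 µM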
Target sequence (Q03530 whole entry, looked up): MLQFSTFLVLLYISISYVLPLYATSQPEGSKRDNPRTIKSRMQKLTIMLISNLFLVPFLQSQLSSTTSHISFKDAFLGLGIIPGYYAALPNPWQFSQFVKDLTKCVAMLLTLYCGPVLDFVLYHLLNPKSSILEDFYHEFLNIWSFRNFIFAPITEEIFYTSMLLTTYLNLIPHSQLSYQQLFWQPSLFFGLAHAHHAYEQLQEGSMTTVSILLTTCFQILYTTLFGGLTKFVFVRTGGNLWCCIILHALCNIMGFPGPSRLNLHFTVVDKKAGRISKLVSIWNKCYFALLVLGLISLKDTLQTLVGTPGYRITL
eIF4H FP inh retest: recorded beside eIF4H FP inh, whose call it bears; inhibition, %; compound at 20 µM; confirmation average;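 mean of two retest wells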
PABP FP inh retest: also measured in PABP FP inh; calls as there; inhibition, %; compound at 20 µM; confirmation repeats;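 mean of two retest wells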
MT1-MMP act inh RFP: also measured in MT1-MMP act inh; calls as there; RFP signal change, %; measured here: RFP expression control read;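 0 = vehicle wells; hits needed this value within 50% of zero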
An asterisk follows results filed as active; i = inactive; ? = inconclusive; · = no result given. A portion of the library; the hit share may differ from the screen's.

SMILES	eIF4H FP inh	MT1-MMP act inh	MT1-MMP act inh RFP	UUG fidelity	PABP FP inh	HIV Env fusion	CSC inhib	Rce1 inh	others
CC(=O)Nc1ccc(S(=O)(=O)Nc2nc3ccccc3nc2Nc2ccc3ccccc3c2)cc1	?	-27.8	1.3	0.2	-0.2	·	59.8	i
Cc1ccc(CNC(=O)C(=O)NCCCn2ccnc2)cc1	·	-0.5	0.6	·	·	·	6.7	i
CC(C)(C)Cc1c(-c2ccc(Cl)cc2)nc2ccc(Cl)cn12	·	-6.1	-0.4	4.3	·	3.9	·	·
CC(C)(C)OC(=O)NC(Cc1ccccc1)C(=O)NCCCC(=O)O (stereo not given)	-5.2	2.9	3.0	-8.0	-0.2	18.4	8.2	i
CCCC(=O)Nc1cc(C)c(NC(=O)C23CC4CC(CC(C4)C2)C3)cn1	3.1	3.7	8.1	1.9	4.3	-13.2	-9.6	i
O=[N+]([O-])c1cccnc1N1CCN(c2ccccc2F)CC1	10.6	-4.5	-2.3	·	-0.4	4.6	0.2	i
O=C1OCCC1Sc1nnc(-c2ccc(O)cc2)o1 (stereo not given)	-8.7	0.7	0.7	-25.7	2.7	·	-7.1	i
COc1cc(/C=C2/NC(=O)N(c3cccc(Cl)c3)C2=O)ccc1O	10.6	-15.1	-22.2	·	-11.5	10.6	55.5	i
COc1cccc(OCC(=O)NNC(=O)Cc2cccs2)c1	-0.3	0.8	1.4	·	0.0	-2.0	·	i
CC(=O)Nc1nc2cc(C(N)=O)ccc2s1	·	-0.1	-0.2	-27.7	·	13.5	-15.3	·
O=c1c2ccccc2nc(/C=C/c2ccc(O)cc2)n1CCc1ccccc1	0.1	-21.6	-9.8	-13.9	0.3	-6.2	50.3	i
CCOC(=O)N1CCN(C(=O)CC(C(=O)N2CCc3ccccc32)n2ccnc2)CC1 (stereo not given)	-5.3	7.1	-0.8	-15.7	2.3	0.1	·	i
Cc1ccc(-c2csc3ncnc(NCCN4CCOCC4)c23)cc1	-4.6	-12.1	-7.4	-9.6	-3.4	?	-0.4	i
Cc1c(-c2ccc(F)cc2)[n+](=O)c(-c2ccc(F)cc2)c(C)n1[O-]	5.1	-4.0	3.1	·	14.3	-109.4	1.1	i
NS(=O)(=O)c1ccc(NC(=O)COc2ccc(C(=O)c3ccc(F)cc3)cc2)cc1	-8.9	-8.9	-20.5	2.6	0.2	34.3	-4.1	i
O=C(Cn1ncc2c3ccccc3n(Cc3ccccc3)c2c1=O)NCCN1CCOCC1	4.2	-1.1	-1.0	-14.7	-0.2	2.4	-10.8	i
Nc1nnc(SCC(=O)Nc2cccnc2Cl)s1	·	1.5	4.0	-18.9	·	-3.4	-6.1	i
COc1ccc(NC(=O)CC2C(=O)N(c3ccc(OC)cc3)C(=O)N2CCN2CCN(C)CC2)cc1 (stereo not given)	-3.6	-0.5	2.0	-2.2	-11.3	5.8	6.2	i
Cc1ccc(N2C(=O)C3CCC(c4ccccc4)CC3C2=O)cc1 (stereo not given)	-7.0	20.8	-5.8	·	-5.6	13.4	-5.1	i
COc1ccc(NC(=O)Cn2nnc(C(=O)NCc3ccccc3OC)c2N)cc1Cl	-5.3	3.0	-3.3	-17.7	-6.7	-42.7	-7.2	i
O=c1/c(=C/c2ccc(O)cc2)sc2nc3cc(Br)cnc3n12	9.5	·	·	·	-14.0	·	-0.4	i
O=C(NCCCNc1ccc(C(F)(F)F)cc1[N+](=O)[O-])c1ccc(F)cc1	-11.9	3.8	-0.1	·	5.1	5.0	16.7	i
Cn1ccnc1SCC(=O)Nc1cccc(O)c1	-11.1	0.2	0.0	-15.9	-6.7	·	3.3	i
CC(C)(C)c1ccc(NC(=O)COC(=O)C2(C)CC2(Cl)Cl)cc1 (stereo not given)	8.3	-3.3	-5.5	·	-4.7	-29.4	10.8	i
COc1ccc(/C=N/NC(=O)CN(C2=NS(=O)(=O)c3ccccc32)c2ccccc2)cc1OC	18.3	1.2	1.1	·	-1.7	-3.6	-7.4	i

Structures listed so far that have a nitro group on carbon:
SMILES	eIF4H FP inh	MT1-MMP act inh	MT1-MMP act inh RFP	UUG fidelity	PABP FP inh	HIV Env fusion	CSC inhib	Rce1 inh	others
O=[N+]([O-])c1cccnc1N1CCN(c2ccccc2F)CC1	10.6	-4.5	-2.3	·	-0.4	4.6	0.2	i
O=C(NCCCNc1ccc(C(F)(F)F)cc1[N+](=O)[O-])c1ccc(F)cc1	-11.9	3.8	-0.1	·	5.1	5.0	16.7	i

Four compounds from above, ordered by number of heavy atoms, falling:
SMILES	eIF4H FP inh	MT1-MMP act inh	MT1-MMP act inh RFP	UUG fidelity	PABP FP inh	HIV Env fusion	CSC inhib	Rce1 inh	others
CC(=O)Nc1ccc(S(=O)(=O)Nc2nc3ccccc3nc2Nc2ccc3ccccc3c2)cc1	?	-27.8	1.3	0.2	-0.2	·	59.8	i
COc1ccc(/C=N/NC(=O)CN(C2=NS(=O)(=O)c3ccccc32)c2ccccc2)cc1OC	18.3	1.2	1.1	·	-1.7	-3.6	-7.4	i
O=c1c2ccccc2nc(/C=C/c2ccc(O)cc2)n1CCc1ccccc1	0.1	-21.6	-9.8	-13.9	0.3	-6.2	50.3	i
Cc1c(-c2ccc(F)cc2)[n+](=O)c(-c2ccc(F)cc2)c(C)n1[O-]	5.1	-4.0	3.1	·	14.3	-109.4	1.1	i

Remaining list, next part
SMILES	eIF4H FP inh	MT1-MMP act inh	MT1-MMP act inh RFP	UUG fidelity	PABP FP inh	HIV Env fusion	CSC inhib	Rce1 inh	others
Cc1ccccc1NC(=O)Cc1nc(COC(=O)/C=C/c2ccccc2)cs1	·	-3.7	-1.0	·	·	1.2	-6.8	i
COC(=O)Cc1cc(=O)n(-c2nc3ccccc3s2)[nH]1	82.5	4.8	5.2	-37.9	5.0	·	23.0	i	eIF4H FP inh retest=5.1;PABP FP inh retest=-1.1
CCOC(=O)Cn1nnnc1CN(Cc1cccs1)Cc1cc2cc(C)ccc2[nH]c1=O	-2.3	1.3	-0.3	·	10.5	31.2	·	i
O=C(CSc1cn[nH]n1)Nc1ccccc1C(=O)O	-9.0	4.0	4.7	-17.2	3.0	-3.8	1.3	i
CC(Sc1nnc(-c2ccc(Cl)cc2Cl)n1Cc1ccccc1)C(=O)Nc1nccs1 (stereo not given)	-9.7	-14.6	-16.6	10.9	1.6	34.7	-10.1	i
O=C(Nc1cccnc1)c1cccnc1	1.7	2.6	3.9	-24.8	-12.1	-13.4	0.9	i
Cc1ccc(S(=O)(=O)N(Cc2ccccc2Cl)C(=O)N2CCN(C)CC2)cc1	·	-3.1	1.4	-22.5	·	-59.4	-11.5	i
O=C(NCCc1ccc(Cl)cc1)c1cccc(N2CCCC2=O)c1	2.6	-0.4	-0.9	-11.3	1.4	·	-7.5	i
O=C(NC1CCSC1=O)c1ccc(Oc2ccc(F)cc2)nc1 (stereo not given)	-1.7	3.7	-1.0	-1.7	-2.4	·	-19.6	i
COc1ccc(OC)c(N(CC(=O)NCc2ccncc2)S(C)(=O)=O)c1	6.7	-2.1	-0.7	-1.6	3.8	-112.5	-16.2	i
CCNc1nc(NCC)n2c(SC(C(=O)Nc3cc(C)ccc3C)c3ccccc3)nnc2n1 (stereo not given)	-4.8	-6.4	-13.8	·	-4.9	-9.7	-3.4	i
CC1(C)c2ccccc2N2CCC(=O)NC21/C=C/c1ccco1 (stereo not given)	?	-18.8	34.6	3.3	105.1*	·	0.5	i	PABP FP inh retest=101.8*
COCCNC(=O)CSc1cc(-c2ccccc2)c2ccc(OC)cc2n1	3.1	-2.5	2.9	·	0.0	19.8	22.8	i
COc1cccc(NC(=O)NCc2ccccn2)c1	-3.3	2.2	4.2	-18.9	13.1	-11.8	-2.4	i
Cc1cc2nc(SCCOC(=O)Nc3cccc(Cl)c3)nc(C)c2cc1C	-16.4	-3.8	1.4	·	12.6	9.8	67.4	i
COc1cccc(/C=N/Nc2ccc([N+](=O)[O-])cn2)c1O	16.1	10.1	-12.3	-39.1	-10.8	34.2	122.8*	i
CC(=O)Nc1ccc(-c2nc3ccccc3o2)cc1	-2.5	6.0	-0.9	-13.8	11.3	-112.8	-8.1	i
c1cn(C23CC4CC(CC(C4)C2)C3)cn1	-7.4	5.1	-0.2	-18.9	-7.9	-29.3	-8.8	i
COc1ccc(OC)c(C(c2c(O)nc(SC)[nH]c2=O)c2c(O)nc(SC)[nH]c2=O)c1	7.7	0.2	4.3	-10.8	5.8	-2.2	-13.3	·
O=C(C[n+]1cc(-c2ccccc2)n2c1CCC2)Nc1nc(-c2ccccc2)cs1	-3.1	-4.5	-2.9	-6.3	-7.4	-19.3	16.6	i
Clc1cccc(Cl)c1C1Nc2cccc3cccc(c23)N1	98.8*	-5.1	-3.1	-8.5	81.3*	18.7	10.9	i
CCN(CC)C(=O)[C@H]1C[C@H](CC(=O)NCCC2=CCCCC2)C(=O)N2CCc3c([nH]c4ccc(Cl)cc34)[C@]12C	·	-25.6	-28.1	-8.9	·	3.1	·	·
CC1NC(C)(C)Cc2c1ccc1ccccc21 (stereo not given)	-0.1	-8.2	-0.1	7.5	1.4	-5.5	-1.2	i
COc1ccc(C(=O)Nc2ccc(C(F)(F)F)n(C)c2=O)cc1	-7.2	-0.1	3.9	·	11.2	-25.4	9.6	i
CCOc1ccc(C(=O)Nc2cc(C)c3c(=O)oc4ccccc4c3n2)cc1	13.9	-0.5	1.5	-29.7	32.1	-0.3	0.6	i
(continued)
SMILES	eIF4H FP inh	MT1-MMP act inh	MT1-MMP act inh RFP	UUG fidelity	PABP FP inh	HIV Env fusion	CSC inhib	Rce1 inh	others
C=CCC[C@H](Cc1ccc(F)cc1)C(=O)OC[C@H](Cc1c[nH]c2ccccc12)NC(=O)[C@H](CC=C)CC(=O)N[C@H](CO)Cc1ccccc1	·	-0.3	-0.7	-1.2	·	32.1	·	·
O=C(/C=N/O)Nc1ccc(F)cc1	-11.6	-1.0	6.3	-9.8	-4.1	·	-6.0	i
CC(Sc1nncn1C)C(=O)Nc1cc(C(F)(F)F)ccc1N1CCOCC1 (stereo not given)	-4.0	-0.3	1.3	·	-6.8	28.7	-2.3	i
CN(C)S(=O)(=O)n1cc(/C=C(\NC(=O)c2ccccc2F)C(=O)NCCCn2ccnc2)c2ccccc21	6.7	1.0	1.4	-12.9	-5.0	2.2	·	i
COc1ccc(C(=O)N=c2sc3c(C)ccc(OC)c3n2C)cc1	3.7	-0.5	1.7	-15.6	-16.2	-96.5	·	i
CCCNC(=O)COc1coc(CN2CCN(C(=O)c3ccco3)CC2)cc1=O	·	1.6	2.2	-8.1	·	-132.9	-6.8	i
CS(=O)(=O)c1ccc(Cl)c(NC(=O)CSc2nncn2-c2ccccc2)c1	8.3	0.8	2.6	-25.7	7.9	11.1	-21.4	i
O=C1OCC(CC2=C(O)C(=O)OC2)=C1O	·	-0.9	1.0	-8.0	·	?	·	·
Cc1ccc(S(=O)(=O)NC2c3cccc4cccc(c34)C2Sc2n[nH]c(N)n2)cc1 (stereo not given)	-9.1	-2.5	-3.3	·	-20.9	-17.2	0.3	i
COc1ccc(CCN2C(=O)CC(N3CCN(c4ccccn4)CC3)C2=O)cc1OC (stereo not given)	4.8	-1.2	0.8	-7.6	-6.2	-9.8	·	i
Cc1c(Cl)cccc1NC(=O)N1CCN(C(=O)c2ccco2)CC1	-1.0	-1.1	1.0	-12.2	5.3	-8.1	-5.8	i
COc1cccc(NS(=O)(=O)c2ccc3c(c2)NC(=O)CC(=O)N3)c1	-1.0	-2.0	4.9	-19.2	1.2	-7.7	0.7	i
